A488 fluor: compound autofluorescence in A488 spectral region; compound autofluorescence, A488 spectral region, dye equivalency; active compounds read high; max dye equivalency, M; 59,000 tested, 0.1% active; active = above 10 nM dye equivalent; inconclusive = 1 to 10 nM; inactive = 1 nM or less; about half of its hits are not listed in these tables;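 note: highest value over a series up to 38 µM; compound alone in buffer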
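Spectroscopic profiling in the A488 region: compounds in pH 8.0 Tris (100 mM), 15 min RT, CCD imaging with 480 nm excitation and 540 nm emission; responses normalized against A488 dye standards.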
Resorufin autofl: resorufin region autofluorescence; Compound fluorescence, resorufin region 547/598 nm, buffer; active compounds read high; max dye-equivalent concentration, M; 59,000 tested, 0.04% active; AID 588; active = above 10 nM dye equivalent; inconclusive = 1 to 10 nM; inactive = 1 nM or less; a few of its hits are not listed in these tables; note: highest value over a series up to 38 µM
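Dye-equivalent concentration values derive from comparing each well's 547/598 nm fluorescence against resorufin standards included on every plate. Incubation was 15 min at room temperature in 100 mM Tris, pH 8.0.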
AID923: qHTS Assay for Allosteric/Competitive Inhibitors of Caspase-1: Spectroscopic Profiling in AFC Spectral Region | compound fluorescence, AFC spectral region (405/520 nm); almost no hit is shown here | Potency, µM (highest dose often 57.5 µM), for inactives: at the highest dose fluorescence increase, actives largely listed as activators | 75,000 tested, 1.1% active | AID 923, 2007; active = well fitted activation curve with a large enough effect; inconclusive = small, poorly fitted or top-dose-only effect;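 note: potency is the fitted concentration of half-maximal effect; 0% is about no effect; scaled to a free AFC standard on each plate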
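Baseline compound fluorescence (AFC region, 405 nm ex/520 nm em) taken from the intercept of kinetic reads with 50 nM caspase-1 and 5 uM Ac-WEHD-AFC; normalized to an on-plate AFC standard curve; compounds titrated up to 57 uM.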
TSHR agonist: TSH receptor (human) agonism | HEK293-CNG-TSHR cells (CNG channel as cAMP sensor), membrane potential dye, cAMP | Potency, µM (highest dose often 57.1 µM), inactives show at the highest dose activation, usual class: activators | 73,000 tested, 0.48% active | AID 926; active = well fitted activation curve of enough size with the parental cells flat; inconclusive = any curve in the parental cells; inactive = parental cells flat and receptor cells flat or falling; note: potency is the fitted concentration of half-maximal effect; % of control where 0% means no effect; weak receptor curves with flat parental cells got no call and are not listed
Target sequence (P16473 whole entry, looked up): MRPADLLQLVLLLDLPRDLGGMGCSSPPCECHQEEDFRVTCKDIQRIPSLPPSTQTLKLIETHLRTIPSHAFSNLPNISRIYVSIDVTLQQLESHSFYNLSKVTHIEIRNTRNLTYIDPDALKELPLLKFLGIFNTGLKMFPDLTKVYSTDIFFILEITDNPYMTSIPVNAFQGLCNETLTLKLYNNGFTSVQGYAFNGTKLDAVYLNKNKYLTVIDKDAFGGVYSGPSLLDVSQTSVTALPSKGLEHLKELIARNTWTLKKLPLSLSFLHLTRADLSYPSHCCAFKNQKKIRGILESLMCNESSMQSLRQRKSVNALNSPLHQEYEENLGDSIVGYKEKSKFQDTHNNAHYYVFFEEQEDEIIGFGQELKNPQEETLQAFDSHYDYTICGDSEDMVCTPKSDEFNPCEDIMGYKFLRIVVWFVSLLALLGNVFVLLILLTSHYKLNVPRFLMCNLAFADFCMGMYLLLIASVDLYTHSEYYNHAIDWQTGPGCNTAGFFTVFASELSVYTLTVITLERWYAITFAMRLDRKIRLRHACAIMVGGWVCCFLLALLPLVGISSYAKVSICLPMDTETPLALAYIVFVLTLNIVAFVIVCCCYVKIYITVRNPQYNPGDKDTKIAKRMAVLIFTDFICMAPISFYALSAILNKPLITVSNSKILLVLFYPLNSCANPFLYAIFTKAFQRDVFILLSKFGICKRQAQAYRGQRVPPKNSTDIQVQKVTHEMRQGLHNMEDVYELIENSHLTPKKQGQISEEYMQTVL
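HEK 293 cells stably expressing TSHR and a cAMP-gated CNG channel; parental CNG-only cells as counterscreen. Cells preloaded 60 min with membrane potential dye plus 100 uM RO 20-1724, then compound 30 min; fluorescence read at 590 nm.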
A647 autofl: compound autofluorescence in A647 spectral region; Compound fluorescence, A647 channel (570/671 nm), Tris buffer; max dye-equivalent concentration, M; 59,000 tested, under 10 active; active means above 1 µM dye equivalent; inconclusive means 0.1 to 1 µM; inactive means 0.1 µM or less;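 note: values scaled relative to a standard on each plate; highest value over a series up to 38 µM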
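Spectral profiling of library compounds in pH 8.0 Tris: 15 min room-temperature incubation, single ex/em pair (570/671 nm), response normalized to Alexa 647 equivalents.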
An asterisk follows results filed as active; i = inactive; ? = inconclusive; nt = not tested or not shown; & = joins results of further samples; [ ] = remark or other dose. A portion of the library, so the mix of outcomes need not match the whole.

SMILES	A488 fluor	Resorufin autofl	AID923	TSHR agonist	A647 autofl
COC(=O)C1(S(=O)(=O)c2cccc3nsnc23)CC1	i	i	-0.6%	2%	1.9e-09
CC(C)(C)c1ccc(O)c(CN(Cc2c(O)ccc3ccccc23)C2CCCCC2)c1	i	i	-0.4%[11.5 µM]	4%[11.4 µM]	1e-09
CC(C)(C)c1ccc(OCc2nc(-c3ccccn3)no2)c(Br)c1	i	i	1.2%	?	1e-09
COC(=O)C(NC(=O)c1ccccc1)(Nc1nccs1)C(F)(F)F (stereo not given)	i	i	nt	nt	1e-09
O=C1Nc2ccc(Br)cc2C1(O)Cc1ccncc1 (stereo not given)	i	i	-0.9%	2%	8.1e-08
Cc1cc(C(=O)Nc2sc3c(c2C#N)CCC3)no1	i	i	-0.2%	5%	1e-09
COc1ccc(CCC2(C)NC(=O)NC2=O)cc1 (stereo not given)	i	i	-1.0%	-1%	3e-08
CC(C)CNC(=O)CN(C1CCCCC1)S(=O)(=O)c1ccccc1	nt	nt	0.5%	32µM*	nt
O=C(O)Cn1c(SCCOc2ccccc2F)nc2ccccc21	i	i	-0.2%	4%	1e-09
COC(=O)CCC(=O)N1CCc2cc(S(=O)(=O)N3CCN(c4ccccc4Cl)CC3)ccc21	i	i	-0.8%	?	7.2e-09
CCOC(=O)c1cnc2ccccc2c1NCCO	i	i	-2.3%	-3%	1e-09
CCOC(=O)Oc1c(OC)cc(C(=O)O[C@H]2C[C@H]3CN4CCc5c([nH]c6cc(OC)ccc56)[C@@H]4C[C@H]3[C@@H](C(=O)OC)[C@@H]2OC)cc1OC	i	i	11%[25.7 µM]	?	3.1e-09
Cc1ccc(-c2nc(CS(=O)(=O)CC(=O)N3CCc4ccccc4C3)c(C)o2)cc1	nt	nt	-1.9%	?	nt
COc1ccc(OC)c(C2c3c(oc4ccccc4c3=O)C(=O)N2CCCN(C)C)c1 (stereo not given)	i	i	0.2%	nt	6.2e-09
O=C(COC(=O)c1cncc(Br)c1)NCC1CCCO1 (stereo not given)	i	i	0.9%	7%	7.4e-09
O=C1CC(C(=O)NCc2ccccc2)N=C(N2CCCCC2)N1 (stereo not given)	i	i	1.1%	-11%	2.1e-08
C=CCSc1nc(C)c(CC(=O)OCCCC)c(=O)[nH]1	i	i	1.1%	3%	6.9e-08
CCOc1ccc(C(C)=O)cc1CSc1nnc(-c2cccs2)n1CC1CCCO1 (stereo not given)	i	i	0.1%	?	3.7e-08
O=C(Cc1cccs1)NCc1ccc(F)cc1	i	i	0.1%	1%	4.8e-09
Cc1c(C)n(Cc2ccccc2)c2ncnc(N)c12	i	i	-0.4%	?	4e-08
O=C(C1=COCCO1)N1CCN(S(=O)(=O)c2cccc(Cl)c2Cl)CC1	i	i	0.0%	1%	1.3e-09
CC1(C)CC(=O)C(C=NCCN2CCN(C(=O)c3ccccc3)CC2)=C(O)C1	nt	nt	1.9%	-3%	nt
CCn1c(SCC(=O)Nc2ccccc2)nnc1-c1ccc(S(=O)(=O)N2CCOCC2)cc1	i	i	0.0%	?	1e-09
CCNc1ncc2nc(C)c(=O)n(CCc3ccccc3)c2n1	i	i	8.9%	5%	1.7e-09
O=S(=O)(c1ccc(N2CCN(c3ccc(F)cc3)CC2)cc1)N1CCCC1	i	i	-1.5%	11%	1.1e-08
COc1cccc(C(=O)NCC2CCN(c3ccc(S(=O)(=O)N4CCOCC4)cc3)CC2)c1	i	i	1.8%	10%	5.4e-08
Cn1c(Cc2csc(N)n2)nnc1SC/C=C/c1ccccc1	i	i	-0.5%	7%	2.8e-08
CN1CCN(C(=O)C2(NC(=O)Nc3cccc(F)c3)CCCCC2)CC1	i	i	-0.7%	0%	1e-09
CCN(CC)S(=O)(=O)c1ccc(Nc2cc(C)nc3ncnn23)cc1	i	i	0.9%	-3%	4.9e-09
CC1=CC(C)(C)Nc2ccc(CSc3ccccc3)cc21	i	i	-1.1%[11.5 µM]	-6%[11.4 µM]	1e-09
CCn1c(COc2ccccc2C)nnc1SCC(=O)N1CCCCC1	i	i	-0.1%	-1%	1.5e-09
CCCCCC(=O)N1CCN(CCN=CC2=C(O)CC(c3ccc(OC)c(OC)c3)CC2=O)CC1 (stereo not given)	i	i	-1.6%	-4%	4.6e-09
Cc1nc2ccc(NC(=O)C3CCN(S(=O)(=O)c4cccs4)CC3)cc2s1	i	i	0.2%	-1%	2.5e-09
Cc1c(C)c2cc(Cl)c(O)c(CN3CCN(C)CC3)c2oc1=O	i	i	nt	nt	2.9e-09
O=C(Nc1ccc(F)cc1)C1CCCN(S(=O)(=O)c2cccc3cccnc23)C1 (stereo not given)	nt	nt	3.4%	-14%	nt
CC(C)CN1CC[C@@]2(CCCN(C(=O)c3cc(C(F)(F)F)cc(C(F)(F)F)c3)C2)C1	i	i	0.4%	4%	2.2e-08
Cc1ccc(C(=O)NCCCNCCCN(C)C)cn1	i	i	-0.7%	-5%	4.5e-09
CCOC(=O)C1CCN(S(=O)(=O)c2ccc(-n3cnnn3)c(C)c2)CC1	i	i	-2.9%	-1%	2.4e-08
CC1CN(c2nc3c(c(=O)n(Cc4ccc(Cl)cc4)c(=O)n3C)n2C)CC(C)O1 (stereo not given)	i	i	-0.8%	12%	6e-09
COC(=O)C1=C(C)Nc2nnnn2C1c1cc(OC)ccc1OC (stereo not given)	nt	nt	0.4%	7%[11.4 µM]	nt

Record cards, as listed above. Order of values: A488 fluor | Resorufin autofl | AID923 | TSHR agonist | A647 autofl
`CC1(C)CC(=O)C(C=NCCN2CCN(C(=O)c3ccccc3)CC2)=C(O)C1` in the list: nt | nt | 1.9% | -3% | nt
`COC(=O)C1=C(C)Nc2nnnn2C1c1cc(OC)ccc1OC` (stereo not given) in the list: nt | nt | 0.4% | 7%[11.4 µM] | nt

Carrying on.
SMILES	A488 fluor	Resorufin autofl	AID923	TSHR agonist	A647 autofl
Cc1cc(NC(=O)CCC(=O)N(CC(=O)NC2CCCC2)Cc2ccccc2Cl)no1	i	i	-0.3%	3%	1.3e-08
O=C(Nc1cccc(C(F)(F)F)c1)c1cc(S(=O)(=O)N2CCCCC2)ccc1N1CCOCC1	i	i	1.1%	0%	1.1e-09
Cn1nc(CC(=O)N2CCN(c3ccccc3)CC2)c2ccccc2c1=O	i	i	0.8%	nt	1.4e-08
Cc1sc(NC(=O)CSc2nc(N)n(CC(=O)c3ccccc3)n2)c(C#N)c1C	i	i	-2.1%	9%[11.4 µM]	6.6e-09
CC(C)NC(=O)c1cc(C(=O)c2cc(Cl)ccc2O)coc1=N	i	i	0.2%	-9%	4.2e-08
COc1ccc(S(=O)(=O)N2CCN(c3ccc4nnc(-c5ccc(F)cc5)n4n3)CC2)cc1	nt	nt	-0.5%	6%	nt
CCCCNC(=O)C1CCCN1C(=O)Nc1cccc(OC)c1 (stereo not given)	i	i	0.3%	-6%	1e-09
CN(C)c1ccc2c(O)cc(=O)n(C)c2c1	i	i	6.4%	-1%	8.9e-09
COc1ccc(NC(=O)CN2CCN(c3ccccc3F)CC2)cc1	i	i	-0.8%	?	4.5e-08
COc1ccc(CCNC(=O)NC(C(F)(F)F)C(F)(F)F)cc1OC	i	i	0.1%	-17%	2.3e-08
CO[C@H]1/C=C/O[C@@]2(C)Oc3c(C)c(O)c4c(O)c(c(/C=N/N5CCN(C)CC5)c(O)c4c3C2=O)NC(=O)/C(C)=C\C=C\[C@H](C)[C@H](O)[C@@H](C)[C@@H](O)[C@@H](C)[C@H](OC(C)=O)[C@@H]1C	nt	nt	2.2%	?	nt
CCOC(=O)Cn1ncc2c(=O)oc3ccccc3c21	i	i	0.5%	3%	5.4e-09
COCCNC(=O)c1csc2c1CCCC2	i	i	-1.4%	-3%[11.4 µM]	1.2e-08
CCOC(=O)CNC(=O)CNC(=O)c1ccc(OC)cc1	i	i	nt	nt	2.9e-09
c1ccc(-c2noc(-c3ccco3)n2)nc1	i	i	0.5%	-4%	2.9e-09
COc1ccccc1NC(=O)c1c(C)cc(=O)oc1C	i	i	nt	nt	1.3e-08
COc1ccc(-n2c(Cc3cccn3C)nnc2SCC(=O)NCCc2ccccc2)cc1	i	i	1.5%	1%	8.2e-09
CCc1ccc2[nH]c(=O)c(CN(CCN(CC)CC)C(=O)Nc3ccccc3OC)cc2c1	i	i	-0.8%	20%	3.2e-08
CC(C)n1nnnc1SCC(=O)NCc1ccco1	i	i	2.4%	8%	1e-09
N#CCCn1c(=O)cnc2cnc(Nc3ccccc3)nc21	i	i	4.0%	3%	1e-09

Among those listed so far, 3 have a cyano group:
SMILES	A488 fluor	Resorufin autofl	AID923	TSHR agonist	A647 autofl
Cc1cc(C(=O)Nc2sc3c(c2C#N)CCC3)no1	i	i	-0.2%	5%	1e-09
Cc1sc(NC(=O)CSc2nc(N)n(CC(=O)c3ccccc3)n2)c(C#N)c1C	i	i	-2.1%	9%[11.4 µM]	6.6e-09
N#CCCn1c(=O)cnc2cnc(Nc3ccccc3)nc21	i	i	4.0%	3%	1e-09

New compounds follow.
SMILES	A488 fluor	Resorufin autofl	AID923	TSHR agonist	A647 autofl
Cc1cc(NS(=O)(=O)c2ccccc2)no1	nt	nt	0.7%	-7%	nt
FC(F)(F)c1ccccc1-c1nc(N2CCOCC2)c2ccccc2n1	i	i	0.5%	?	4.2e-09
COc1ccc(C(=O)NCCn2cc(SCC(=O)NCc3ccco3)c3ccccc32)cc1	i	i	2.1%	4%	4e-09
COCCNc1ncncc1-c1c(C)noc1C	i	i	2.6%	?	3.4e-08
CCOc1ccccc1NC(=O)COc1cccc(-n2cnnn2)c1	i	i	0.5%	?	1e-09
CCNc1nc(SC(C(C)=O)C(C)=O)nc(N(C)C)n1	i	i	-1.8%	12%	5e-08
COCCCn1c(=O)c2ccccc2c2ccccc2c1=O	i	i	0.1%	16%	2e-09
CCCCn1c(SCc2ccc(C(=O)OC)o2)nc2cc(S(N)(=O)=O)ccc21	i	i	-0.4%	?	2.2e-08
COc1ccc(CCN2CCC(Nc3nc4ccccc4n3Cc3ccc(F)cc3)CC2)cc1	i	i	-0.7%	-25%[25.6 µM]	7.2e-09&1.3e-08
CCOC(=O)C1CCCN(Cc2cc(OC)c(O)c(OC)c2)C1 (stereo not given)	nt	nt	0.0%	2%	nt
C=C(Br)CN1CCN(CC(=C)Br)CC1	i	i	nt	nt	7.4e-08
CN(Cc1ccccc1)C(=O)N[C@@H](Cc1ccccc1)C(=O)O	i	i	0.1%	6%	2e-08
CCCc1nnc(NC(=O)CCC(=O)N2CCN(CCn3c(C)ccc3C)CC2)s1	i	i	1.1%	-3%	8.8e-09
CN(C)CCCOC(=O)C1c2ccccc2Oc2ccccc21	i	i	nt	nt	1e-09
CCOC(=O)c1[nH]c(C)c(C(=O)Nc2ccccc2C)c1C	nt	nt	0.2%	4%	nt
CCCC[C@@H]1C[C@H]1C(NC(=O)c1ccco1)c1ccc(Cl)cc1 (stereo not given in full)	nt	nt	1.3%	?	nt
CCc1c(C(=O)NCc2ccc3c(c2)OCO3)[nH]c(C)c1C(C)=O	i	i	-1.2%	7%	6.6e-09
COC(=O)c1ccc(C2C(C(C)=O)=C(O)C(=O)N2CCO)cc1 (stereo not given)	i	i	1.2%	4%	2.1e-08
CCOC(=O)Cc1csc(NC(=O)CC)n1	nt	nt	1.9%	-4%	nt
Cc1ccc(N2CCN(C(=O)c3ccccc3F)CC2)c(C)c1	nt	nt	-4.1%	?	nt
CCN(CC)C(=O)CC(c1ccc(F)cc1)c1ccco1 (stereo not given)	i	i	0.8%	?	1e-09
COc1ccc(N2CCN(CCNC(=O)c3ccc(NC(=O)C4CCCO4)cc3)CC2)cc1 (stereo not given)	i	i	-0.6%	13%[11.4 µM]	4.8e-09
CCn1c(SCc2nc3ccccc3c(=O)[nH]2)nc2ccccc2c1=O	i	i	-0.7%	?	2.7e-08
O=C(c1ccc(F)cc1)N1CCCCC(Sc2nnc3ccccn23)C1=O (stereo not given)	i	i	0.7%	22%	1.6e-09
